Screens: PubChem, several laboratories
GPR55 activation = selective activators of receptor GPR55 – imaging, U2OS cells, beta-arrestin-GFP redistribution, primary screen (AID 1961); activation, % at 10 µM, or EC50 in µM where a hit was titrated; 0.048% of 290,000 active; U2OS GPR55 beta-arrestin-GFP redistribution imaging; higher % means a stronger effect;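 active = activation above 40% with more than 50 cells counted in the well; inconclusive = wells holding fewer than 50 cells, flagged as toxic or sparse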;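 note: U2OS osteosarcoma cells stably expressing GPR55 and beta-arrestin-GFP; plate controls were DMSO negative control for no effect and LPI positive control for full effect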
P. falciparum M1AAP = P. falciparum M1AAP inhibitors, biochemical, fluorogenic H-Leu-NHMec substrate, 1536-well (AID 1445); recombinant M1AAP, H-Leu-NHMec fluorogenic kinetic assay; higher % means a stronger effect; one-dose inhibition, % at 30 µM; IC50 in µM for titrated hits; 0.42% of 220,000 active;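 active = primary inhibition above the hit cutoff, then over 50% inhibition at one or more dose response concentrations, cut at about 23% in these data, passing the limit was not always enough; inconclusive = conflicting primary data, or primary hits not chosen for dose response; inactive = low primary inhibition, or under 50% at every dose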;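 note: plate controls were DMSO full reaction for no effect and no enzyme background for full effect; strong numbers were not always called active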
KOR beta-arrestin = kappa opioid receptor activators – cell-based, luminescence, uHTS, primary screen (AID 1777) | 0.02% of 280,000 active | KOR beta-arrestin recruitment, luminescence; higher % means a stronger effect | activation, % at 10 µM; hits with a dose series show EC50 in µM; in the data active = activation above about 50%, passing the limit was not always enough; note: a part of the inactive calls stands beside numbers as strong as those of hits
Dynein cargo inh = dynein cargo transport inhibition. 3617.4 mouse cells, GR-EGFP nuclear translocation imaging; test concentration mostly 20 µM; stimulated with dexamethasone, 1 µM; active compounds read low. z-score, hits read low. 0.47% of 220,000 active. AID 1381;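 active = plate z-score of nuclear minus cytoplasmic receptor signal below a set negative limit, without overly bright fluorescence or cell loss, cut at about -3.5 in these data, passing the limit was not always enough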;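 note: z-score of nuclear minus cytoplasmic ring GR-EGFP intensity difference per well; some compounds called inactive have numbers as strong as hits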
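medium = tetracycline-free induction medium containing charcoal-stripped FBS | also added = 1.0 µM final dexamethasone stimulus | schedule = 48 h induction, 1 h compound, 30 min dex at 37 °C | technique = fixed, Hoechst-stained cells imaged at 10x for EGFP | measure = GR-EGFP nuclear translocation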
M17LAP inhibition = P. falciparum M17LAP inhibitors, primary screen, biochemical, fluorogenic H-Leu-NHMec substrate, 1536-well (AID 1619); recombinant M17LAP, H-Leu-NHMec fluorogenic kinetic assay; higher % means a stronger effect; inhibition, % at 30 µM; hits with a dose series show IC50 in µM; 0.38% of 220,000 active;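 active = compound inhibiting the enzyme by more than half at any dose during confirmatory dose-response retesting; inconclusive = strong single-dose inhibitors picked by rank but not retested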;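 note: plate controls were full reaction with DMSO carrier for no effect and no enzyme background for full effect; strong numbers were not always called active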
AID2073 = inhibitors of Mint1-CaV2.2 protein interaction, biochemical, HTRF (AID 2073); HTRF protein-protein interaction, Mint1-CaV2.2; higher % means a stronger effect; one-dose inhibition, % at 20 µM; IC50 in µM for titrated hits; 0.19% of 290,000 active; in the data active = inhibition mostly above about 51%, no sharp cut-off; inconclusive = no clear call, values can overlap the other calls; inactive = mostly below about 53%; note: some results filed as inactive read as strong as hits
Dynein cargo inh cytoplasmic EGFP = also measured in Dynein cargo inh; calls as there; z-score; measured here: cytoplasmic GR-EGFP intensity; active compounds read high
Dynein cargo inh nuclear GR-EGFP = also measured in Dynein cargo inh; calls as there; z-score; measured here: nuclear GR-EGFP intensity;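 lower value marks the stronger effect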
Dynein cargo inh cell count = recorded beside Dynein cargo inh, whose call it bears; z-score; measured here: cell count per field
An asterisk follows results filed as active; ? = inconclusive. Some of the compounds tested. The share of hits here may be higher or lower than overall.

nr	Compound	GPR55 activation	P. falciparum M1AAP	KOR beta-arrestin	Dynein cargo inh	Dynein cargo inh cytoplasmic EGFP
1	CCOC(=O)Cc1c(C)nc2c(-c3ccccc3)c(-c3ccccc3)[nH]n2c1=O	-0.1%	5%	5.4%	-0.34	-0.21
2	CC1Cc2ccccc2N1C(=O)C1CCCN(S(=O)(=O)c2cccc3nsnc23)C1 (stereo unspecified)	0.3%	2%	2.0%	1.8	-0.14
3	CSc1cccc(NC(=O)CN(c2ccccc2)S(=O)(=O)N(C)C)c1	-0.1%	1%	-0.4%	-0.94	-0.25
4	Cc1cccc(Nc2nc3c(c(=O)n(C)c(=O)n3C)n2CC(O)CO)c1 (stereo unspecified)	0.2%	8%	1.0%	-0.64	-0.21
5	COC(=O)c1ccccc1NC(=O)Oc1ccc(F)cc1	0.4%	8%	0.1%	-0.59	-0.21
6	CCOc1c2ccc(C(=O)NCc3ccc4c(c3)OCO4)cc2nn1CCOC	-0.1%	-1%	3.8%	1.4	-0.18
7	C=CCc1ccc(OCCOCCOc2ccc(C)cc2[N+](=O)[O-])c(OC)c1	0.5%	5%	4.7%	0.12	-0.28
8	Nc1ccc(Sc2ccccc2CC(=O)O)cc1	0.0%	16%	5.5%	0.084	-0.26
9	O=[N+]([O-])c1cccc(-c2nnn(C34CC5CC(CC(C5)C3)C4)n2)c1	0.8%	11%	1.9%	0.31	0.07
10	Clc1ccc2ncc(-c3nnnn3-c3ccccc3)c(-c3ccccc3)c2c1	0.3%	-3%	2.6%	-0.013	-0.24
11	COc1ccc(OC)c(-n2c(-c3ccc(C)cc3)n[nH]c2=S)c1	-0.1%	5%	1.4%	0.57	-0.1
12	CCOc1cc(C2C(C(=O)OC(C)C)=C(C)N=C3SCCC(=O)N32)ccc1OC(C)=O (stereo unspecified)	0.2%	-3%	-0.2%	0.27	-0.22

nr	Dynein cargo inh nuclear GR-EGFP	Dynein cargo inh cell count	M17LAP inhibition	AID2073
1	-0.34	-0.11	2%	13%
2	1.5	-1.7	7%	13%
3	-0.37	0.21	-14%	2%
4	-0.3	0.99	3%	7%
5	-0.57	0.48	3%	7%
6	1	-0.073	-93%	-6%
7	0.24	0.29	6%	33%
8	0.18	0.75	-8%	-10%
9	0.4	-0.48	-10%	-2%
10	0.61	0.59	-2%	10%
11	0.59	-0.71	9%	-14%
12	0.15	0.5	10%	-2%

(continued)
nr	Compound	GPR55 activation	P. falciparum M1AAP	KOR beta-arrestin	Dynein cargo inh	Dynein cargo inh cytoplasmic EGFP
13	CC(C)Cn1c(-c2csc3c2CCCC3)n[nH]c1=S	0.0%	6%	-1.9%	0.64	-0.23
14	Cc1cc(/C=C2\SC(=S)N(Cc3ccco3)C2=O)c(C)n1-c1cccnc1	-2.3%	1%	0.3%	-1.8	2.6
15	CC(C)CNc1ncnc2c1sc1nc(N3CCOCC3)c3c(c12)CC(C)(C)OC3	0.4%	-7%	1.9%	-0.25	-0.24
16	CN(CCC#N)CC(=O)Nc1ccc(NC(=O)CN(C)CCC#N)cc1	-0.1%	-5%	14%	-0.96	-0.26
17	CN(C)c1ccc(/C=N/N2C(=S)SC(C)(C)C2N(O)C(=O)Nc2ccc([N+](=O)[O-])cc2)cc1 (stereo unspecified)	-0.1%	20%	-1.2%	-0.78	-0.15
18	CC[n+]1c(/C=C/C=C/N(C(C)=O)c2ccccc2)sc2ccccc21	-0.1%	15%	7.1%	-3.9*	-0.031*
19	CCOc1ccc(-n2c(Cc3ccccc3)nnc2SCc2c(C)noc2C)cc1	0.0%	-2%	-0.1%	-0.51	-0.32
20	Nc1cc(Cl)ccc1Oc1ccc(Cl)cc1	0.2%	-4%	3.6%	-0.43	-0.25
21	O=c1cc(C(F)(F)F)[nH]c(=O)n1C1CCCCC1	-0.1%	12%	-2.5%	0.43	0.41
22	CCCOc1ccc(C(=O)Nc2ccc(C)cc2[N+](=O)[O-])cc1	0.6%	4%	5.5%	-0.26	-0.2
23	CCc1ccc(CSc2nccn2-c2ccccc2)cc1	-0.1%	-1%	5.4%	2.4	-0.21
24	CCCNC(=O)Cn1cnc2sc(C(=O)NCCN(CC)CC)c(C)c2c1=O	-0.1%	1%	-1.7%	0.037	-0.19

nr	Dynein cargo inh nuclear GR-EGFP	Dynein cargo inh cell count	M17LAP inhibition	AID2073
13	-0.52	0.4	-4%	-34%
14	-0.34	0.46	4%	-10%
15	-0.53	0.24	-6%	6%
16	-0.48	0.53	-5%	-9%
17	-0.2	0.3	13%	-22%
18	-2.2*	0.96*	-7%	-1%
19	0.15	0.04	-6%	-20%
20	-0.93	-0.19	5%	-6%
21	0.89	0.18	0%	10%
22	-0.53	0.018	2%	11%
23	0.51	-1.1	4%	0%
24	0.36	-0.21	4%	28%

Carrying on:
nr	Compound	GPR55 activation	P. falciparum M1AAP	KOR beta-arrestin	Dynein cargo inh	Dynein cargo inh cytoplasmic EGFP
25	CCOC(=O)Cc1csc(NC(=S)NC(=O)c2ccc(Cl)cc2)n1	0.2%	6%	2.8%	1.4	-0.12
26	O=C(Cn1c(O)c(/C=C2\C=Nc3ccccc32)sc1=O)Nc1ccc2c(c1)OCO2	-0.1%	12%	-2.2%	-0.067	0.091
27	COc1ccc(OCC(O)COc2ccc(C(=O)O)cc2)cc1 (stereo unspecified)	0.2%	-2%	19%	-0.52	-0.011
28	NC(=O)C1(NC(=O)[C@@H]2CC3(CC(c4cccc(NC(=O)[C@@H]5CCC(=O)N5)c4)=NO3)CN2C(=O)c2cnccn2)CC1 (stereo partly specified)	-0.1%	-3%	0.9%	-1.3	-0.13
29	O=C(c1ccco1)N1CCN(c2nc(-c3ccc(F)cc3)cs2)CC1	0.0%	5%	-2.9%	-0.7	-0.22
30	COc1ccc(OCC(=O)NNC(=O)c2ccccn2)cc1	0.9%	-10%	4.5%	-0.002	0.69
31	Cc1cccc(NC(=O)CSc2n[nH]c(-c3ccncc3)n2)c1	-0.1%	10%	22%	-0.19	-0.3
32	CCN(C(=O)CSc1nnc(Cc2cccc3ccccc23)n1N)C1CCS(=O)(=O)C1 (stereo unspecified)	-0.1%	-5%	3.4%	0.46	-0.21
33	CCCNC(=O)CC(NS(=O)(=O)c1ccc(Cl)cc1)c1ccco1 (stereo unspecified)	-0.2%	1%	0.0%	-0.16	-0.26
34	CC(C)(C)NC(=O)Cn1nnc(-c2ccccc2NC(=O)c2cnccn2)n1	-0.1%	2%	1.7%	-1.1	-0.056
35	Cc1ccc(NC(C#N)c2ccccc2OCc2ccccc2)cc1 (stereo unspecified)	-0.1%	13%	-1.3%	0.13	-0.2
36	COc1ccccc1CNC(=O)CN1CCC(NC(=O)c2ccccc2F)CC1	-0.1%	8%	-0.1%	1.6	-0.19

nr	Dynein cargo inh nuclear GR-EGFP	Dynein cargo inh cell count	M17LAP inhibition	AID2073
25	1.5	-0.21	15%	-6%
26	0.66	0.28	5%	24%
27	-0.21	0.38	11%	1%
28	-0.13	0.9	-6%	-6%
29	-0.98	0.45	-15%	-15%
30	-0.1	0.51	-5%	0%
31	-0.32	0.45	37%	11%
32	1.2	-0.11	2%	-3%
33	0.14	-0.75	3%	8%
34	-1.3	-0.028	4%	-8%
35	0.6	-0.12	8%	-7%
36	0.85	-1.4	4%	-3%

(list continues)
nr	Compound	GPR55 activation	P. falciparum M1AAP	KOR beta-arrestin	Dynein cargo inh	Dynein cargo inh cytoplasmic EGFP
37	COc1ccccc1-n1cc(C(=O)NCC(=O)N2CCN(c3ccccc3)CC2)c2ccccc2c1=O	-0.1%	2%	16%	-0.54	-0.26
38	CC1Cc2cc(/C(O)=C3/C(=O)C(=O)N(CCN4CCOCC4)C3c3cccc(Cl)c3)ccc2O1 (stereo unspecified)	0.3%	-4%	4.5%	-0.93	-0.16
39	CC(C)NC(=O)CC1Nc2c3ccccc3nc(=S)n2C1=O (stereo unspecified)	-0.1%	10%	3.6%	0.21	-0.22
40	Cc1ccc(-c2cc(N)n3nc(-c4ccc(C)cc4)cc3n2)cc1	-0.1%	2%	1.5%	-0.59	-0.17
41	O=C(c1ccc2nc(-c3ccco3)c(-c3ccco3)nc2c1)N1CCN(c2ncccn2)CC1	0.2%	13%	1.9%	-1.3	-0.044
42	CCCS(=O)(=O)N1CCCC(C(=O)NCCCN(C)Cc2ccccc2)C1 (stereo unspecified)	0.0%	2%	7.4%	-0.64	0.61
43	CC1CCCC(C)N1CCNC(=O)Cn1nc(-c2ccccc2)ccc1=O (stereo unspecified)	-0.1%	6%	2.7%	0.21	-0.11
44	CC(=O)Nc1ccc(S(=O)(=O)NCCN2CCOCC2)cc1	0.3%	5%	-3.9%	0.23	-0.17
45	O=C(NC1CCCCC1)C(c1ccc(F)cc1)N(C(=O)Cc1ccsc1)c1ccc(F)cc1 (stereo unspecified)	0.2%	4%	2.1%	-0.47	-0.3
46	O=C(CCCn1c(=S)[nH]c2cc3c(cc2c1=O)OCO3)N1CCN(c2ccc(Cl)cc2)CC1	0.0%	2%	-4.2%	-0.22	-0.41

nr	Dynein cargo inh nuclear GR-EGFP	Dynein cargo inh cell count	M17LAP inhibition	AID2073
37	-0.03	0.3	2%	-3%
38	-0.25	0.62	20%	9%
39	0.65	0.31	9%	-52%
40	0.39	0.95	-3%	6%
41	-0.47	-0.72	21%	65%
42	-0.31	0.55	-9%	18%
43	-0.082	0.26	10%	-6%
44	0.78	-0.61	-5%	-5%
45	-0.12	0.65	-7%	?
46	-0.22	0.14	-7%	16%

Compounds above that contain an aryl methoxy group (six):
nr	Compound	GPR55 activation	P. falciparum M1AAP	KOR beta-arrestin	Dynein cargo inh	Dynein cargo inh cytoplasmic EGFP
7	C=CCc1ccc(OCCOCCOc2ccc(C)cc2[N+](=O)[O-])c(OC)c1	0.5%	5%	4.7%	0.12	-0.28
11	COc1ccc(OC)c(-n2c(-c3ccc(C)cc3)n[nH]c2=S)c1	-0.1%	5%	1.4%	0.57	-0.1
27	COc1ccc(OCC(O)COc2ccc(C(=O)O)cc2)cc1 (stereo unspecified)	0.2%	-2%	19%	-0.52	-0.011
30	COc1ccc(OCC(=O)NNC(=O)c2ccccn2)cc1	0.9%	-10%	4.5%	-0.002	0.69
36	COc1ccccc1CNC(=O)CN1CCC(NC(=O)c2ccccc2F)CC1	-0.1%	8%	-0.1%	1.6	-0.19
37	COc1ccccc1-n1cc(C(=O)NCC(=O)N2CCN(c3ccccc3)CC2)c2ccccc2c1=O	-0.1%	2%	16%	-0.54	-0.26

nr	Dynein cargo inh nuclear GR-EGFP	Dynein cargo inh cell count	M17LAP inhibition	AID2073
7	0.24	0.29	6%	33%
11	0.59	-0.71	9%	-14%
27	-0.21	0.38	11%	1%
30	-0.1	0.51	-5%	0%
36	0.85	-1.4	4%	-3%
37	-0.03	0.3	2%	-3%
